Screening results: PubChem BioAssay, several laboratories
Sa ugtP lethal: compounds lethal to S. aureus RN4220 ugtP deletion mutant; growth inhibition, % (test concentration not listed); AID 1259309; 330,000 compounds, 0.54% hits; OD600 growth, 16 h; some inactives read as strong as hits;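 active = z-score under -3 and OD600 up to 0.15 on both plates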;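 also: plate controls were untreated wells for no effect and antibiotic for full effect; wells of about 80 µL received 100 nL stock; the first replicate is given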
RN4220 kill: kills Staphylococcus aureus RN4220 | S. aureus RN4220 growth, OD600, 16 h | inhibition, % (concentration not given with the values) | 330,000 compounds, 0.33% hits;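 active = z-score of -3 or lower and OD600 up to 0.18 on both plates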;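 also: plate controls were untreated cells for no effect and reference antibiotic for full effect; stock transfer was 100 nL into about 80 µL; one replicate is shown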
BJeLR viability: kills HRASV12-expressing BJeLR cells; BJeLR (HRASV12) viability, CellTiter-Glo ATP luminescence, 48 h; reference of the scale not given here; inhibition, % (test concentration not listed); 300,000 compounds, 0.17% hits;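 active = replicate mean above 50%; inconclusive = above 50% but judged a plate artefact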;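 also: 50 nL library stock added to about 25 µL; numbers are from one replicate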
PrP UTR inh: inhibition of PrP 5' UTR reporter expression. cell-based PrP 5' UTR mRNA reporter, plate reader. inhibition, % (no concentration beside the values). 340,000 compounds, 0.35% hits. AID 488862;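 active = every replicate at 50% or more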;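 also: 0 = median of the neutral control wells; tested in H4 reporter cells; numbers are from one replicate; inactives centre near -14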
Autofluor counter: counter-screen for toxin protease inhibitors: compound fluorescence. compound autofluorescence counterscreen, microsphere flow cytometry; stronger effect = higher value. fluorescence intensity (test concentration not listed). 360,000 compounds, 3.1% hits;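 active = at least 3 SD above the mean of all compounds, about 16000 in these data; inconclusive = too few beads counted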;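 also: 100 nL of 1 mM stock went into each well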
Mtb hypoxia rep: inhibitors of hypoxia-regulated fluorescent reporter in Mycobacterium tuberculosis. 300,000 compounds, 0.1% hits. M. tuberculosis hypoxia-regulated fluorescent reporter, fluorescence. AID 1159583. fluorescence inhibition, % (no concentration beside the values);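 active = 35 to 45% if threefold the growth effect, above 45% if 1.5-fold the growth effect; inactive = the rest, general growth blockers included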;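 also: wells of about 50 µL received 100 nL stock; 0% = vehicle wells and 100% = reference inhibitor wells; whole bacteria with a GFP reporter of the hypoxia response; strong numbers were not always called active; many hits fall short of the cut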
Mtb hypoxia rep growth: recorded beside Mtb hypoxia rep, whose call it bears; growth inhibition, %; measured here: M. tuberculosis growth (absorbance);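 0% = vehicle and 100% = reference antibiotic; read after six days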
Active calls of the source: *; u = inconclusive; x = not tested or not shown.

Preview:
SMILES	Sa ugtP lethal	RN4220 kill	BJeLR viability	PrP UTR inh	Autofluor counter	Mtb hypoxia rep	Mtb hypoxia rep growth
COC(=O)c1ccc(OCC(=O)Nc2ccsc2C(=O)OC)cc1	-2.4	6.1	-0.6	-12.1	4436	5.3	-0.2
COc1cccc(N=C2C(=O)N3CCCc4cccc2c43)c1	4.1	6.1	-16.7	-8.4	1850	9.7	4.5
Cc1oc(-c2ccc(Cl)cc2)nc1CS(=O)CC(=O)NC1CCCCCC1 (stereo unspecified)	-1.3	1.1	11.0	-2.6	4442	5.6	2.9
CC(=O)c1sc(NN=Cc2ccccc2O)nc1C	-3.6	10.6	x	x	x	11.9	4.6
O=C(Nc1cccc(F)c1)C1C2C=CC3(CN(CCCN4CCOCC4)C(=O)C13)O2 (stereo unspecified)	5.9	-10.1	4.2	-7.0	6032	4.4	7.1
CC[C@@]1(C(=O)OC)N[C@H](CN(C)C(=O)COc2ccccc2)[C@@H]2C(=O)N(C)C(=O)[C@@H]21	0.5	-0.8	x	14.6	4061	-2.5	1.1
C=CCc1c(C)nc(-c2ccccc2)nc1N/N=C(\C)c1ccccc1	x	x	-23.8	-16.6	10867	x	x
Cc1csc(=NC(=O)c2ccccc2)n1Cc1ccco1	40.0	3.9	-3.4	-20.9	11640	2.9	1.0
CCOC(=O)N1CCN(c2c(N3CCOCC3)c(=O)c2=O)CC1	7.6	0.4	-3.8	-10.3	6416	4.7	2.4
FC(F)(F)c1ccncc1-c1nnc(C2CCCCC2)o1	-2.3	2.8	-4.8	-27.9	6234	18.4	6.5
C=CCNC(=S)N/N=C/c1cn(-c2ccccc2)nc1-c1ccc(OC)cc1	x	x	-29.9	-33.5	3408	x	x
CCNC(=O)c1cccc(S(=O)(=O)N2CCCCCC2)c1	12.7	3.2	-2.1	-6.6	2159	13.1	5.2
O=C(NOCc1ccccc1)c1ccc([N+](=O)[O-])cc1	5.0	4.6	x	-76.2	3828	8.4	-0.8

Results, from the start:
SMILES	Sa ugtP lethal	RN4220 kill	BJeLR viability	PrP UTR inh	Autofluor counter	Mtb hypoxia rep	Mtb hypoxia rep growth
COC(=O)c1ccc(OCC(=O)Nc2ccsc2C(=O)OC)cc1	-2.4	6.1	-0.6	-12.1	4436	5.3	-0.2
COc1cccc(N=C2C(=O)N3CCCc4cccc2c43)c1	4.1	6.1	-16.7	-8.4	1850	9.7	4.5
Cc1oc(-c2ccc(Cl)cc2)nc1CS(=O)CC(=O)NC1CCCCCC1 (stereo unspecified)	-1.3	1.1	11.0	-2.6	4442	5.6	2.9
CC(=O)c1sc(NN=Cc2ccccc2O)nc1C	-3.6	10.6	x	x	x	11.9	4.6
O=C(Nc1cccc(F)c1)C1C2C=CC3(CN(CCCN4CCOCC4)C(=O)C13)O2 (stereo unspecified)	5.9	-10.1	4.2	-7.0	6032	4.4	7.1
CC[C@@]1(C(=O)OC)N[C@H](CN(C)C(=O)COc2ccccc2)[C@@H]2C(=O)N(C)C(=O)[C@@H]21	0.5	-0.8	x	14.6	4061	-2.5	1.1
C=CCc1c(C)nc(-c2ccccc2)nc1N/N=C(\C)c1ccccc1	x	x	-23.8	-16.6	10867	x	x
Cc1csc(=NC(=O)c2ccccc2)n1Cc1ccco1	40.0	3.9	-3.4	-20.9	11640	2.9	1.0
CCOC(=O)N1CCN(c2c(N3CCOCC3)c(=O)c2=O)CC1	7.6	0.4	-3.8	-10.3	6416	4.7	2.4
FC(F)(F)c1ccncc1-c1nnc(C2CCCCC2)o1	-2.3	2.8	-4.8	-27.9	6234	18.4	6.5
C=CCNC(=S)N/N=C/c1cn(-c2ccccc2)nc1-c1ccc(OC)cc1	x	x	-29.9	-33.5	3408	x	x
CCNC(=O)c1cccc(S(=O)(=O)N2CCCCCC2)c1	12.7	3.2	-2.1	-6.6	2159	13.1	5.2
O=C(NOCc1ccccc1)c1ccc([N+](=O)[O-])cc1	5.0	4.6	x	-76.2	3828	8.4	-0.8
Cc1ccc(S(=O)(=O)NC2=NCN(Cc3ccccc3)CN2)cc1	2.7	1.5	-4.3	-18.3	9882	6.5	6.4
O=C(CN1CCN(c2ccccc2O)CC1)Nc1cccnc1Cl	2.5	0.3	5.6	-26.8	4307	0.4	8.4
O=C(Cn1nnc(-c2ccc3c(c2)OCO3)n1)Nc1ccccc1C(=O)O	0.7	0.6	10.4	-12.7	5893	5.5	12.2
Cc1nn(Cc2cccc(C(=O)N3N=C(C(F)F)CC3(O)C(F)F)c2)c(C)c1[N+](=O)[O-] (stereo unspecified)	-4.5	5.2	6.9	8.9	24863*	7.2	5.9
CCN(CC)CCNC(C(=O)Nc1cc(C(F)(F)F)ccc1Cl)c1ccccc1 (stereo unspecified)	2.2	3.8	7.5	-12.1	9062	7.2	9.6
O=C(C[n+]1cccc2ccccc21)c1ccccc1	2.2	5.4	9.5	-23.6	5001	11.7	7.0
COC(=O)c1sccc1NC(=O)c1cc2c(s1)CCCC2	9.8	7.5	-8.2	x	8581	0.6	1.9
Cc1cc(C)c(NC(=O)COC(=O)Cc2cccs2)c(C)c1	1.4	0.3	5.5	-26.1	u	6.5	-3.4
COc1ccc(Cn2c(O)c(C=Nc3ccc(OC)cc3)c3ccccc3c2=O)cc1	4.6	2.0	-8.8	7.3	2703	14.7	2.7
Cc1cccc(C)c1NC(=O)CN1N=NC2C(=O)N(c3cccc(Cl)c3)C(=O)C21 (stereo unspecified)	-4.7	4.9	-4.1	-20.3	9783	4.5	4.2
CSc1nnc(C2CCCN(CC(=O)Nc3ccccc3N3CCOCC3)C2)n1C(C)C (stereo unspecified)	4.8	6.2	-2.6	-15.9	3605	14.6	3.1
COC(=O)c1sc(S(=O)(=O)N2CCCCC2C(=O)O)c(C(=O)OC)c1C (stereo unspecified)	4.8	-2.9	-7.7	-9.5	3871	x	x
Additional entries.
SMILES	Sa ugtP lethal	RN4220 kill	BJeLR viability	PrP UTR inh	Autofluor counter	Mtb hypoxia rep	Mtb hypoxia rep growth
COC(=O)Cc1ccc(NC(=S)NCCSc2ccc(Cl)cc2)cc1	-10.2	3.0	-3.0	-0.4	6107	4.0	12.1
O=C(CSC1=NCCS1)c1ccc(Cl)cc1	3.7	4.4	22.9	-1.9	4523	5.8	10.7
Cc1cccc(C)c1OCc1cc(C(=O)N2CC3C[C@@H]4CC2C[C@H](C3)C4)no1	-0.3	3.5	-5.9	-64.2	6065	1.7	12.6
CNC(=S)NN=C1CC(c2ccccc2)Oc2ccccc21 (stereo unspecified)	-14.7	2.3	x	x	x	-2.6	1.1
O=C(NC1CCCCC1)C(c1ccco1)N(CCc1ccccc1)C(=O)C(F)(F)F (stereo unspecified)	-4.6	-5.3	-9.1	-19.4	4359	-10.4	0.3
CCn1c2ccccc2c2cc(C3C(C#N)=C(N)Oc4n[nH]c(COC)c43)ccc21 (stereo unspecified)	3.2	-0.6	16.1	-41.2	9667	15.4	1.3
O=C(O)/C=C/S(=O)(=O)c1ccc2ccccc2c1	1.1	7.8	-0.6	-12.2	3298	-5.3	3.9
Cc1c(N2C(=O)CSC2c2ccc(F)cc2)c(=O)n(-c2ccccc2)n1C (stereo unspecified)	0.1	2.6	-1.3	-13.5	6154	-3.6	-1.2
CCOc1ccc(CNc2nc3ccccc3n2C)cc1	0.9	-6.6	0.7	-20.2	3402	11.5	-1.5
CCOC(=O)CC1(NC(=O)C2CCC(=O)N(CCc3ccc(OC)cc3)C2)CCCCC1 (stereo unspecified)	6.8	2.6	6.9	-1.5	5522	-4.7	-1.8
Cc1ccc(-n2ncc3c(=O)n(CC#N)cnc32)cc1	76.9	-8.5	1.0	-18.3	20625*	2.9	0.8
COc1cc(NC(=S)NC(=O)c2cccs2)ccc1NC(=O)C(C)C	x	x	1.2	-18.7	4300	x	x
CCCCn1c(SCC(=O)N(C)C)nnc1-c1ccncc1	5.6	2.8	-1.1	-88.1	4365	1.6	1.5
CCCCN1C(=O)C(=O)NC[C@@H]1C(C)O (stereo partly specified)	x	x	5.9	-17.3	2743	x	x
COc1cc(-n2c(=O)c3ccccc3n(Cc3ccccc3)c2=O)cc(OC)c1OC	-1.9	4.8	-8.4	-0.3	3370	-0.1	8.5
Cc1cc(Cl)cc(Cl)c1CNc1c([N+](=O)[O-])c(=O)oc2ccccc12	0.0	7.6	3.0	-1.2	2435	4.5	10.9
CSc1nnc(N2C(=O)C(O)=C(C(=O)c3ccco3)C2c2ccccc2)s1 (stereo unspecified)	5.6	25.5	-2.6	-11.7	4601	-2.0	-5.0
C/C(Cn1nnc([N+](=O)[O-])n1)=N\NC(=O)c1ccccc1O	x	x	-0.2	2.0	6073	x	x
COc1ccc(/C=C/C(=O)NCCc2c[nH]c3ccccc23)cc1OC	0.7	4.1	-9.9	-23.9	4409	-6.4	1.0
CC1(C)CC(=O)c2cc(C(=O)NC3CCSC3=O)c(=O)n(-c3ccc(Cl)cc3)c2C1 (stereo unspecified)	0.4	3.9	4.6	-16.3	2063	-0.3	13.9
CCC(=O)Nc1ccc2nn(-c3ccc(F)cc3)nc2c1	x	x	-1.3	-69.3	3464	x	x
COc1ccc(Cn2c(=O)[nH]c3cc(C(=O)NCCCN4CCCC4=O)ccc3c2=O)cc1	4.3	-4.9	-19.3	-23.1	4472	1.3	4.1
COC(=O)c1ccccc1-c1cn(C)c2ccccc2c1=O	3.6	3.0	-5.2	-10.7	3582	4.1	5.1
COc1ccc(CNC(=O)C2CCN(S(=O)(=O)N3CCOCC3)CC2)cc1	5.1	1.9	-3.7	-26.1	3028	3.6	4.4
Cc1ccc(S(=O)(=O)N2CCOCC2)cc1NC(=O)CSc1nnc2n1CCCCC2	9.1	8.1	x	-12.1	4139	14.6	4.4
(further entries)
SMILES	Sa ugtP lethal	RN4220 kill	BJeLR viability	PrP UTR inh	Autofluor counter	Mtb hypoxia rep	Mtb hypoxia rep growth
C[N+](C)(C)CC/C=C1/c2ccccc2CSc2ccccc21	7.4	-2.1	3.9	-16.1	4169	16.0	11.4
c1ccc(-c2nnc(-c3ccco3)o2)cc1	3.3	7.5	3.4	-56.3	2940	19.4	15.2
Cc1ccc(S(=O)(=O)N(CC(=O)N/N=C/c2cccc3c2OCCO3)c2ccccc2F)cc1	x	x	1.9	-10.9	3703	x	x
Cn1c2ccccc2c2cc(C(=O)O)ccc21	3.1	6.3	10.5	-16.6	6632	12.0	3.3
C=CCn1c(=O)c2ccccc2n2c(SCc3csc(-c4ccccc4)n3)nnc12	7.5	4.7	1.7	-7.8	3178	x	x
Cc1cc(C)c2nc(N3CCC(C(=O)NCCCN4CC(C)CC(C)C4)CC3)sc2c1 (stereo unspecified)	-4.8	-7.6	-9.1	-15.0	2395	-3.5	1.8
CN(C)c1ccc(C=NNC(=O)c2ccc3c(c2)OCCO3)cc1	10.4	-0.2	x	x	x	-5.1	-3.9
COc1ccc(C(=O)Nc2ccc(N3CCN(C)CC3)cc2)cc1[N+](=O)[O-]	2.7	9.7	2.6	-24.3	3831	9.6	0.6
COc1ccc(/C=N/OCc2ccccc2C#N)c(OC)c1	x	x	-5.0	-45.8	3744	x	x
Cc1cc(NC(=O)c2ccccc2-c2ccccc2)ccc1Br	-6.9	8.1	3.2	8.0	2084	-2.4	2.9
O=C(COC(=O)COc1ccc(Br)cc1)Nc1ccc2c(c1)OCCO2	-1.5	1.3	x	2.9	3627	11.4	3.3
Cc1cccc2[nH]c(CN(C)C(=O)CC3C(=O)NCCN3CC(C)(C)C)nc12 (stereo unspecified)	-0.7	8.0	0.6	-6.1	4456	13.2	7.2
CC(=O)Nc1ccccc1NS(=O)(=O)c1ccc(Cl)cc1	-1.9	5.2	1.1	-7.4	6422	0.2	8.6
COc1cccc2cc(C(=O)Nc3ccc(F)cc3)c(=Nc3ccc(C(=O)O)cc3)oc12	-0.7	5.7	2.1	-72.3	4686	-0.7	3.7
CCn1c(CC(=O)Nc2ccccc2)nnc1SCC(=O)NC1CCCC1	-1.1	0.0	-6.0	-5.4	5768	1.0	-1.3
CCn1c(C)[n+](CC)c2ccc(C(=O)N(C)c3ccccc3)cc21	1.5	7.9	9.0	-32.3	4050	2.3	-3.9
O=C(CCn1c(=O)sc2ccccc21)NCCN1CCOCC1	-6.9	-10.3	0.6	-18.5	5327	6.3	2.4
O=C(CC1C(=O)NCCN1Cc1cccc(C(F)(F)F)c1)NC1CCOCC1 (stereo unspecified)	-1.8	2.5	1.5	-12.8	5815	12.6	0.5
